Source: PubChem BioAssay (Southern Research Specialized Biocontainment Screening Center)
Mtb bLac sens: beta-lactam sensitization of Mtb H37Rv; M. tuberculosis H37Rv growth with meropenem, percent inhibition; hits of this screen are not shown here; AID 434955; 0.27% of 330,000 active; inhibition, % at 25 µM;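 active = about 74% or more and at least 40 points above the plate without the antibiotic, then above 30% in a dose series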;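 also: growth measured after seven days incubation then overnight dye step; 0% = bacteria only wells and 100% = bacteria with antibiotic; twin plates without the antibiotic show which effects depend on it; some results filed as inactive read as strong as hits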
An asterisk follows results filed as active. The list is partial; count on the stated rates, not on these rows.

Structure	Mtb bLac sens
CC(CNC(=O)Cn1ccc(NC(=O)OCc2ccccc2)nc1=O)c1ccccc1 (stereo not given)	-8.9
C[C@H](CO)N1C[C@H](C)[C@H](CN(C)C(=O)Nc2ccc(F)cc2)Oc2ccc(NC(=O)NC3CCCCC3)cc2CC1=O	0.1
COc1ccc(-c2cc(C(=O)Nc3cccnc3)c3ccccc3n2)cc1OC	36.0
COc1ccc(CN(C)CC(=O)Nc2cccc(S(=O)(=O)N3CCCC3)c2)cc1F	-5.1
C[C@]12c3[nH]c4ccccc4c3CCN1C(=O)C(CC(=O)NCCC1=CCCCC1)C[C@@H]2C(=O)N1CCCCC1 (stereo not given in full)	5.8
Cc1ccc(S(=O)(=O)N2[C@@H](c3ccc(Cl)cc3)C(C(=O)O)=CC[C@H]2c2ccc3c(c2)OCO3)cc1	4.9
Cc1ccc(OCCC(=O)Nc2ccc3c(c2)OCO3)cc1	62.8
CCOc1ncccc1C(=O)OCC(=O)N1c2ccccc2CC1C (stereo not given)	-4.1
C[C@](N)(CCP(=O)(O)O)C(=O)O	0.6
COc1ccc2c3n(nc2c1)CCN=C3c1ccc(C)cc1	52.3
Nc1ncnc2c1ncn2[C@@H]1O[C@H](CNCc2ccc(OCC(=O)Nc3nccs3)cc2)[C@@H](O)[C@H]1O	-10.4
COc1ccc(-c2nnc(SCC(=O)Nc3c(Cl)cc(Cl)cc3C(=O)O)o2)cc1	-1.8
CCN(CC)S(=O)(=O)c1ccc(C)c(NC(=O)COC(=O)CCC(=O)c2cccs2)c1	1.1
CC(=O)Nc1ccc(SCC(=O)Nc2ccccc2N2CCOCC2)cc1	-6.0
C[C@H]1COC(=O)[C@@H](Cc2ccc(F)cc2)CC/C=C\C[C@H](CC(=O)NCCO)C(=O)N1	4.9
CC(NC(=O)COC(=O)c1ccc2c(c1)OCCO2)c1ccccc1 (stereo not given)	2.1
N#Cc1ccccc1S(=O)(=O)N1CCN(C(=O)Cc2n[nH]c(=O)c3ccccc23)CC1	-3.2
COC(=O)c1cn(CC(=O)Nc2ccc(OC)cc2)c2ccccc12	0.2
NS(=O)(=O)c1ccc(CCNC(=O)CSc2ccc([N+](=O)[O-])cc2)cc1	-2.0
CCCC(C(=O)NNC(=O)c1cc(C)oc1C)c1ccccc1 (stereo not given)	-0.6
Cc1nn(CC(=O)OCC(=O)c2ccc(OC(F)F)cc2)c(C)c1[N+](=O)[O-]	-1.9
CC1Sc2ccc(C(=O)NCc3ccccc3Cl)cc2NC1=O (stereo not given)	6.0
O=C(NCCc1ccccn1)c1c(-c2ccccc2)sc2ccccc12	-7.6
COc1cc(C(=O)NNC(=O)CSc2nnc3ccccn23)cc(OC)c1OC	-3.0
O=C(C1CC(=O)N(c2ccc3c(c2)OCCO3)C1)N1CCN(Cc2ccccc2F)CC1 (stereo not given)	-2.2

Compounds from the list above containing a Cl atom:
Structure	Mtb bLac sens
Cc1ccc(S(=O)(=O)N2[C@@H](c3ccc(Cl)cc3)C(C(=O)O)=CC[C@H]2c2ccc3c(c2)OCO3)cc1	4.9
COc1ccc(-c2nnc(SCC(=O)Nc3c(Cl)cc(Cl)cc3C(=O)O)o2)cc1	-1.8
CC1Sc2ccc(C(=O)NCc3ccccc3Cl)cc2NC1=O (stereo not given)	6.0

(more compounds)
Structure	Mtb bLac sens
O=C(C[n+]1ccccc1)N/N=C/c1ccccc1Cl	-4.2
COc1ccc(NC(=O)c2ccc(OCC3CCCO3)cc2)cc1OC (stereo not given)	-9.6
NC(=O)OCC(O)COc1ccc(Cl)cc1 (stereo not given)	-6.2
COc1cc(CN(CCN(C)C)Cc2ccccc2)ccc1OCc1ccccc1	16.7
CC(C)(C)OC(=O)N1CCC[C@H]1C(=O)OCC(=O)Nc1cc(S(C)(=O)=O)ccc1Cl	-2.6
CC(C)[C@H](NS(=O)(=O)c1ccccc1)C(=O)OCC(=O)NC(=O)NC1CCCCC1	1.5
C=CCn1c(SCC(=O)Nc2ccc(N3CCOCC3)cc2)nnc1-c1ccncc1	-31.1
CC(=O)c1sc(NC(=O)C2CCCN2S(=O)(=O)c2ccccc2F)nc1C (stereo not given)	-0.2
CCN(CC(=O)N1CCCC1)S(=O)(=O)c1cc(C)ccc1OC	-1.2
O=C(COC(=O)Cc1ccccc1F)Nc1ccccc1[N+](=O)[O-]	0.8
COC(=O)[C@]1(C)N[C@H](CN(C)C(=O)c2ccc(C)cc2)[C@@H]2C(=O)N(C)C(=O)[C@@H]21	0.5
Cc1cc(NC(=O)CSc2nc3c(cnn3-c3cccc(Cl)c3)c(=O)[nH]2)no1	0.8
NC(=O)c1nc[nH]c1C(=O)Nc1cccc(NC(=O)c2cccc(C(F)(F)F)c2)c1	-2.6
COC(=O)C1=C(c2c(C)noc2C)C[C@@H]2CC[C@H]1N2C(=O)NC(C)C	-2.0
Cc1ccc(S(=O)(=O)CC(=O)NCc2ccc(Cl)cc2)cc1	0.5
Cn1nnnc1SCC(=O)Nc1nc2c(F)c(F)c(F)cc2s1	2.6
CC(C)(C)OC(=O)N1CCC(NC(=O)c2nc[nH]c2C(=O)N2CCN(C(=O)OC(C)(C)C)CC2)CC1	11.6
CNc1ccc(C(=O)OCC(=O)Nc2ccnn2C(C)C)cc1[N+](=O)[O-]	4.5
CC(NC(=O)Cc1ccsc1)c1ccc(F)cc1 (stereo not given)	-4.8
N[C@@]1(C(=O)O)CC[C@@H](C(=O)O)C1	-3.1
Cc1sc2ncnc(N3CCC(C(=O)Nc4cc(Cl)ccc4Cl)CC3)c2c1C	56.8
C[C@@H]1NC(=O)[C@@]2(C)[C@@H](c3ccccc3)[C@H]3COc4ccccc4[C@@H]3N2C1=O	-9.3
CCOc1ncccc1C(=O)Nc1ccc(C)c(S(=O)(=O)N2CCCCCC2)c1	-1.8
CCOc1cc(N2CCOCC2)c(OCC)cc1NC(=O)C1CC(=O)N(c2ccc(C)cc2)C1 (stereo not given)	-7.6
CN(Cc1ccccc1)C(=O)c1[nH]cnc1C(=O)Nc1ccc(Cl)cc1	64.7
CCS(=O)(=O)c1ccc(O)c(NC(=O)c2cc(-c3ccccn3)nc3ccccc23)c1	5.7
CC1CCN(S(=O)(=O)c2ccc(NC(=O)CCN3C(=O)C4CC=CCC4C3=O)cc2)CC1 (stereo not given)	5.1
COc1cc(CC(=O)Nc2cccc(S(=O)(=O)N(C)c3ccccc3)c2)cc(OC)c1OC	-2.5
CC(C)(C)OC(=O)C[C@H]1C/C=C\C[C@@H](CC(=O)N(CCO)Cc2ccccc2)C(=O)N[C@@H](c2ccccc2)COC1=O	7.4
O=C(C1CCCN1S(=O)(=O)c1ccc(Cl)cc1)N1CCN(c2ccccc2)CC1 (stereo not given)	-6.3
CCc1ccc(C(=O)NNC(=O)Cn2c(=O)cnc3ccccc32)cc1	-7.2
COc1cc([C@H]2c3c(cc(OC)c(O)c3OC)C[C@@H](CO)[C@@H]2CO[C@@H]2O[C@H](CO)[C@@H](O)[C@H](O)[C@H]2O)cc(OC)c1O	-3.4
O=C(CNc1ccccc1Cl)Nc1cc(S(=O)(=O)N2CCOCC2)ccc1Cl	99.7
COc1ccc(S(=O)(=O)N2CCOCC2)cc1NC(=O)COC(=O)c1[nH]c(C)c(C(C)=O)c1C	-5.2
O=C(COC(=O)c1ccc(Br)o1)Nc1ccc(Br)cc1	0.3
NC1=NC[C@@H](CC2CCCCC2)N1CCc1cc(C(F)(F)F)cc(C(F)(F)F)c1	100.1
Nc1c(C(=O)CSc2nccn2-c2cccc(F)c2)c(=O)[nH]c(=O)n1C1CC1	-1.2
CC(=O)Nc1ccc(NC(=O)CN2C(=O)NC3(CCCCCCC3)C2=O)cc1	-8.2
CC(=O)Nc1ccc(S(=O)(=O)NCC(=O)N2CCN(S(=O)(=O)c3cccs3)CC2)cc1	4.2
Cc1c2ccccc2c(C)c2c1ccc1ccccc12	-3.6
O=C(NCCCc1ccccc1)c1cccc(Br)c1	-7.3
Cc1nnc(SCC(=O)NCC(=O)Nc2ccc(F)c(F)c2F)n1N	2.7
COc1ccc(NC(=O)N(C)C[C@@H]2Oc3c(NC(=O)Nc4c(C)noc4C)cccc3C(=O)N([C@@H](C)CO)C[C@@H]2C)cc1	-1.9
Cc1cccc(NC(=O)CN(C)CC(=O)NC(c2ccccc2)c2ccccc2)c1C	14.5
CCCCn1c(N)c(N(CC)C(=O)c2cnc(C)cn2)c(=O)[nH]c1=O	1.7
Cc1cccc(NC(=O)CNC(=O)CSc2nnc(C(F)(F)F)n2C)c1C	-1.1
COc1ccc(OC)c(-c2csc(NC(=O)c3ccccc3F)n2)c1	0.1
COc1ccc(S(=O)(=O)N2CCOCC2)cc1NC(=O)COC(=O)c1oc2ccccc2c1C	2.8
OCCN(Cc1ccccc1)c1ncnc2sccc12	-7.9
CCN(CC(=O)NCc1cccs1)C(=O)c1ccc(-c2ccc(F)cc2)o1	1.6

A few values from the list:
Under Mtb bLac sens, CC(=O)Nc1ccc(NC(=O)CN2C(=O)NC3(CCCCCCC3)C2=O)cc1 is listed with -8.2
Under Mtb bLac sens, COc1cc([C@H]2c3c(cc(OC)c(O)c3OC)C[C@@H](CO)[C@@H]2CO[C@@H]2O[C@H](CO)[C@@H](O)[C@H](O)[C@H]2O)cc(OC)c1O is listed with -3.4
Under Mtb bLac sens, O=C(NCCCc1ccccc1)c1cccc(Br)c1 is listed with -7.3

The list goes on:
SMILES	Mtb bLac sens
C[C@H](CO)N1C[C@H](C)[C@@H](CN(C)C(=O)Nc2ccccc2)Oc2ccc(NC(=O)Nc3ccc(C(F)(F)F)cc3)cc2C1=O	9.1
Cc1ccc(NC(=O)COC(=O)c2nn(C)c(=O)c3ccccc23)cc1F	0.9
O=C1C=C(c2ccc3c(c2)oc2ccccc23)C[C@@H](c2ccc(Cl)cc2)C1	-1.8
COc1ccc(C(=O)NCc2ccccc2CN2CCCC2)cc1S(=O)(=O)Nc1ccc(C)cc1	2.3
COC/C=C/C1=CC(=O)C[C@H](c2ccc3c(c2)OCO3)C1	0.5
C[C@@H]1C(=O)O[C@H]2CC34[C@H]5C[C@@H](C(C)(C)C)[C@]36[C@@H](OC(=O)[C@@H]6O)O[C@@]4(C(=O)O5)[C@]21O (stereo not given in full)	-9.1
CN(CC(=O)Nc1ccc(F)cc1)C(=O)c1ccc(OCc2cn3ccccc3n2)cc1	-1.6
CC(C)(C)OC(=O)NCCCCCNC(=O)c1nc[nH]c1C(=O)NCC(=O)OCc1ccccc1	2.0
CCOc1ccccc1NC(=O)COC(=O)c1ccc2ccccc2n1	5.6
Cc1csc(SCC(=O)Nc2ccc3[nH]c(=O)[nH]c3c2)n1	3.8

Gathered by group: those above with bromine.
SMILES	Mtb bLac sens
O=C(COC(=O)c1ccc(Br)o1)Nc1ccc(Br)cc1	0.3
O=C(NCCCc1ccccc1)c1cccc(Br)c1	-7.3

(further entries)
SMILES	Mtb bLac sens
O=C(Nc1ccc(Cl)cn1)c1ccc(Oc2ccccc2)cc1	-2.8
CC1CN(S(=O)(=O)c2ccc(C(=O)NC3CCCCC3)cc2)CC(C)O1 (stereo not given)	-5.7
O=C(CSc1ccc(S(=O)(=O)N2CCCCC2)cn1)Nc1ccccc1Br	-1.4
COc1ccc([C@H]2CC(=O)C=C(c3c(OC)cccc3OC)C2)cc1	12.4
COc1ccc(N(CC(=O)NCCSc2ccccc2)S(=O)(=O)c2ccccc2)c(OC)c1	-4.3
C[C@H](CO)N1C[C@H](C)[C@@H](CN(C)CC2CCCCC2)Oc2c(NS(=O)(=O)c3cccs3)cccc2C1=O	-3.8
COc1cc2cnc(-c3ccccc3)cc2cc1OC	61.7
CN(CC1COc2ccccc2O1)C(=O)c1ccc(Cl)c(S(=O)(=O)N2CCCCCC2)c1 (stereo not given)	-0.2
CC(Sc1nnc(Cc2ccccc2)n1C)C(=O)NC1CC1 (stereo not given)	-2.6
COc1ccc(-c2csc(NC(=O)C3CSC4(C)CCC(=O)N34)n2)cc1 (stereo not given)	-5.3
CN(CC(=O)Nc1sccc1C(N)=O)S(=O)(=O)c1ccc(Cl)cc1	4.7
Cc1ccc(C)c(OC(=O)C2CSC3(C)CCC(=O)N23)c1C (stereo not given)	-4.9
Cc1ccc(C)c(OCCC(=O)NNC(=O)c2cc(C)oc2C)c1	-4.6
CCCCn1c(N)c(N(CCOC)C(=O)CN(C)CC(=O)Nc2ccc(Cl)c(Cl)c2)c(=O)[nH]c1=O	6.8
CC(OC(=O)c1ccc(NC(=O)CC#N)cc1)C(=O)NCCC1=CCCCC1 (stereo not given)	5.4
O=C(CNC(=O)c1ccc2c(c1)OCO2)NCc1cccs1	-9.4
O=c1[nH]c2ccc(Cl)cc2c(-c2ccccc2)c1[N+](=O)[O-]	-3.6
CCc1ccc(/C(C)=N/NC(=O)C(O)c2ccccc2)s1 (stereo not given)	-9.4
Cc1ccc(C)c(Oc2ccc(S(=O)(=O)N3CCN(C)CC3)cn2)c1	1.6
COc1ccc(CNC(=O)C(c2ccco2)N(C(=O)c2snc(C(N)=O)c2N)c2cccc(OC)c2)cc1 (stereo not given)	-3.8
CCOc1ccc(/C=C(\C(=O)O)c2ccc(S(=O)(=O)N3CCCCC3)s2)cc1OC	-11.4
CCOC(=O)C1=C(COC(=O)[C@@H](NC(=O)c2cccc(C)c2)C(C)C)NC(=O)NC1C (stereo not given in full)	-5.2
Nc1ncnc2c1ncn2[C@@H]1O[C@H](CN2CCCS2(=O)=O)[C@@H](O)[C@H]1O	8.5
C=CCOC(=O)c1ccccc1C(=O)OCC=C	-3.1
CCCCCc1nnc(NC(=O)c2cccc(S(=O)(=O)N3CCOCC3)c2)s1	-8.6
CCS(=O)(=O)N1CCC(C(=O)Oc2ccc(C(=O)OC)cc2)CC1	0.8
COc1cccc(CCC(=O)Nc2cc3c(cc2C(=O)O)OCCCO3)c1OC	-7.7
O=C(CSc1nc2ccccc2c(=O)n1CCCN1CCOCC1)Nc1ccc(Br)cc1	78.7

Grouped by structure, the compounds so far containing a cyano group.
SMILES	Mtb bLac sens
N#Cc1ccccc1S(=O)(=O)N1CCN(C(=O)Cc2n[nH]c(=O)c3ccccc23)CC1	-3.2
CC(OC(=O)c1ccc(NC(=O)CC#N)cc1)C(=O)NCCC1=CCCCC1 (stereo not given)	5.4
